D2 agonist: human D2 receptor agonism in beta-arrestin assay. AID 624465. actives 0.084% (n = 360,000). P14416. activation, % (test concentration not listed). DiscoveRx PathHunter D2 beta-arrestin, luminescence, 90 min; 100% = 57 uM dopamine signal; in the data active = activation above about 40%; inconclusive = about 15% to 40%; inactive = below about 15%; also: compound concentration not given in the record; the text of the record calls up to 30% inactive
Target sequence (P14416 whole entry, looked up): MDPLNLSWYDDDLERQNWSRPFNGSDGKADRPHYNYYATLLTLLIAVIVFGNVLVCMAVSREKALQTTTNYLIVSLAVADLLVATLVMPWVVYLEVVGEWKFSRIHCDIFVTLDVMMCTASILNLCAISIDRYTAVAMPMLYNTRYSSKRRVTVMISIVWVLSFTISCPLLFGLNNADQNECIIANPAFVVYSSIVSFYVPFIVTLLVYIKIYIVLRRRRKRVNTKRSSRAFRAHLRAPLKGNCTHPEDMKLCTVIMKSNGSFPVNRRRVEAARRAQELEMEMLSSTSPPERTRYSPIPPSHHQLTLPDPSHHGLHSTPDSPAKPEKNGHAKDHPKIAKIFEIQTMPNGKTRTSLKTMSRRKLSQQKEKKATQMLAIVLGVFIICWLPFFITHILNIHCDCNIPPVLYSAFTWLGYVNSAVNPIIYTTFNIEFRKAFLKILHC
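DiscoveRx PathHunter D2 beta-arrestin cells (2,100/well) attached overnight, then compound-stimulated 90 min at 37 C in HBSS/10 mM HEPES/0.1% Tween-20 buffer; beta-galactosidase complementation read by luminescence after 1 h at ambient temperature. Dopamine 57 uM final (EC100) as control.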
PINK1 modulator: changes PINK1 expression; PINK1 immunofluorescence, high-content cytometry, 24 h; Potency, µM (doses to about 76.6 µM), inactives show at the top dose activation (PINK1 increase), most hits filed as activators; actives 0.2% (n = 410,000); active = well fitted activation curve with a large enough effect; inconclusive = small, poorly fitted or top-dose-only effect; inactive = flat fitted curve, though single readings scatter; cell line not stated here;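 also: potency is read from the fitted curve at half-maximal effect; % of control where 0% means no effect; nearly all actives have a fitted effect of over 65% in size; a mitochondrial uncoupler was the plate control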
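Fluorescence from anti-PINK1 antibody, together with nuclear and cell stains, was scanned on a laser-scanning cytometer. Before staining, stable-line cells were incubated 24 hours with compounds at 5 concentrations; primary antibody 12 h at 10 degrees C.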
Six1-Eya2 inh: inhibitors of human Six1/Eya2 interaction | AID 651725 | activity change, % (test concentration not listed) | AlphaScreen GST-Six1/His-Eya2 binding, biochemical; active compounds read low; control for the full effect not named in the record | actives 0.56% (n = 360,000); in the data active = activity change below about -65%; inconclusive = about -30% to -65%; inactive = above about -30%; also: % is scaled to controls: 0 for no effect and ±100 for the full control effect
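GST-Six1 + His-Eya2 (5X stock: 250/500 nM); Tris pH 8.0, 300 mM NaCl, 0.05% BSA, 0.02% Tween 20; GSH donor/Ni acceptor beads; 1 h 37 °C dark; AlphaScreen readout.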
CtBP-E1A inh: inhibitors of CtBP/E1A interaction | AID 651724 | activity change, % (concentration not given with the values) | AlphaScreen GST-E1A/His-CtBP binding, 1536-well; active compounds read low; control for the full effect not named in the record | actives 0.49% (n = 340,000); in the data active means activity change below about -65%; inconclusive means about -30% to -65%; inactive means above about -30%; also: % is scaled to controls: 0 for no effect and ±100 for the full control effect
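Protein mix (5X: 125 nM each GST-E1A, His-CtBP) was incubated with pinned compound 2 h at 37 deg C in dark, in 50 mM Tris pH 8.0 buffer with 300 mM NaCl. Glutathione donor and nickel acceptor beads followed; AlphaScreen signal read after 1 h.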
D2 potentiator: human D2 receptor positive allosteric modulation; P14416; DiscoveRx D2 beta-arrestin cells, luminescence, 90 min; 100% = 57 uM dopamine signal; potentiation, % (test concentration not listed); actives 0.23% (n = 360,000); active = potentiation of 50% or more; inconclusive = 30% to 50%; inactive = 30% or less;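 also: compound concentration not given in the record; tested on top of an EC20 dose of dopamine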
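D2 cells co-treated with compound plus 50 nM dopamine (EC20) for 90 min at 37 deg C to detect potentiation. Beta-arrestin recruitment was read as enzyme-fragment luminescence after 1 h at ambient temperature. Full response was set by 57 uM dopamine.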
TRPML1 ag: agonists of human TRPML1 channel | AID 624414 | activation, % (concentration not given with the values) | actives 0.12% (n = 410,000) | TRPML1-expressing cells, Ca2+ dye fluorescence, FDSS; host cell line not named in the record; reference of the full effect not given here; in the data active = activation above about 50%; inconclusive = about 30% to 50%; inactive = below about 30%; also: 0% is about no effect; the text of the record puts the active cut at 80%
Target sequence (Q9GZU1 whole entry, looked up): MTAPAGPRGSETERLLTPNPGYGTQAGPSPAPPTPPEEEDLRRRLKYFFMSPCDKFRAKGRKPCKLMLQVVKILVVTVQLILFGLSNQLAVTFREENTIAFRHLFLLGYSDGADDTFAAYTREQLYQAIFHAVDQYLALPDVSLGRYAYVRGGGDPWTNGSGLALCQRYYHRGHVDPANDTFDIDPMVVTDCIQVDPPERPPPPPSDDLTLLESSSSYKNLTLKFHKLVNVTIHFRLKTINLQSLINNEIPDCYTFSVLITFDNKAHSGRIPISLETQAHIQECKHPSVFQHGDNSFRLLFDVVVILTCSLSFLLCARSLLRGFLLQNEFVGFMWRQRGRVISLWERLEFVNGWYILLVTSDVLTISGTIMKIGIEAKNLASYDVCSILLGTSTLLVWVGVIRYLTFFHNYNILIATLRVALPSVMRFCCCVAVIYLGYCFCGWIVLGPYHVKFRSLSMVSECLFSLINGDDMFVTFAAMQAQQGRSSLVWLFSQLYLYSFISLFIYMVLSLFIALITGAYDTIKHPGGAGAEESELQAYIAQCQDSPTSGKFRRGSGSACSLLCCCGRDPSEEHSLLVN
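Agonist activity was taken from a 110 s kinetic Ca2+ dye read on the FDSS after pinning compounds onto TRPML1-DL cells. The cells were seeded at 1,500/well with Tet inducer, incubated about 16 h, then dye-loaded at room temperature.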
Numbers without * were called inactive; ? = inconclusive; / = not tested or not shown; & = joins results of further samples; [ ] = another dose, or the depositor's remark.

SMILES	D2 agonist	PINK1 modulator	Six1-Eya2 inh	CtBP-E1A inh	D2 potentiator	TRPML1 ag
COc1cc(NC(=O)[C@@H]2CCCN2S(=O)(=O)c2cccc3cccnc23)cc(OC)c1OC	-1.2	1.6%	3	4	-13	0.2
O=C(Nc1ccccc1F)c1ccc(COc2ccc(Cl)cc2Cl)o1	-0.2	3.0%	20	22	3	0.1
COC(=O)c1[nH]c(C)c(/C(O)=C2\C(=O)C(=O)N(CCN(C)C)C2c2cccc(OC)c2OC)c1C (stereo not given)	-0.9	0.6%[38.3 µM]	-1	-1	-8	0.1
COc1ccc(NC(=S)N(Cc2ccc(C(=O)O)cc2)Cc2ccc(OC)c(OC)c2)cc1	4.2	-1.4%	4	6	-1	0.2
COC(=O)C1=C(C(=O)OC)[C@@H]2N(C)c3ccc(OC)cc3[C@@]23C[C@@H](C(=O)OC)N=C3N1	-3.3	3.5%	1	-1	-9	-0.2
Cc1ccc(Nc2nnc(SCc3cc(=O)n4cc(C)ccc4n3)s2)cc1	0.2	-0.8%	-23	-67*	-8	1.8
CC(C)c1ccc(CC(=O)N2CCC2(C)C(=O)Nc2cccc(C#N)c2)cc1 (stereo not given)	-3.3	-0.7%	9	6	-3	-0.5
Cc1ccc(S(=O)(=O)NC(CC(=O)OCc2ccccc2)C(=O)OCc2ccccc2)cc1 (stereo not given)	-5.5	0.7%	9	0	-9	3.9
Cc1ccc(NC(=O)CN(C)S(=O)(=O)c2cccc3nsnc23)cc1	-1.5	-0.8%	-2	8	7	0.3
CCCCN1CC(COC)Oc2cccc(F)c2S1(=O)=O (stereo not given)	-7.4	0.4%	12	2	-6	0.2

Structures above shown as hits in CtBP-E1A inh.
SMILES	D2 agonist	PINK1 modulator	Six1-Eya2 inh	CtBP-E1A inh	D2 potentiator
Cc1ccc(Nc2nnc(SCc3cc(=O)n4cc(C)ccc4n3)s2)cc1	0.2	-0.8%	-23	-67*	-8

(cont.)
SMILES	D2 agonist	PINK1 modulator	Six1-Eya2 inh	CtBP-E1A inh	D2 potentiator	TRPML1 ag
O=[N+]([O-])c1ccc(O)c(CN2CCCCCC2)c1	3.9	-0.3%	-3	/	-1	-0.8
CCN=c1scc(C)n1/N=C/c1ccc(O)c(O)c1O	49*	0.8%	?	?	117*	0.1
COc1ccc(C(=O)N/N=C(/C)c2cccc(NC(=O)C(F)(F)F)c2)cc1	0.8	0.1%	3	-4	-22	1.4
COc1ccc2c(c1)CC(C(=O)Nc1ccc(Cl)cc1)/C(=N/O)O2 (stereo not given)	-4.9	1.6%	2	7	4	/
CC(C)NC(=O)C1(C)CCCN1Cc1ccccc1C#N (stereo not given)	-5.3	-0.1%	-3	0	-5	-0.4
O=C(NCCc1csc(-c2cccnc2)n1)c1cccs1	-4.5	-0.6%	-1	0	-6	-0.1
CCOCCCNC(=O)c1ccc(Cn2c(=S)[nH]c3c([nH]c4ccc(OC)cc43)c2=O)cc1	0.0	-0.4%	-10	/	-19	-0.2
Cc1nc2c(=O)n(C)c(=O)[nH]c2n1Cc1ccccc1	-1.0	-2.4%	3	-2	-19	0.5
CCOc1ccccc1NC(=O)Cn1nnc(C(=O)NCc2cccs2)c1N	-2.8	8.2%&9.5%	7	1	-1	0.4&-0.7
O=C(Nc1c(C(=O)O)[nH]c2ccccc12)c1cccc(C(F)(F)F)c1	-2.7	0.4%	3	0	-10	-0.2

Two entries from above, bar-delimited:
compound | D2 agonist | PINK1 modulator | Six1-Eya2 inh | CtBP-E1A inh | D2 potentiator | TRPML1 ag
CCOc1ccccc1NC(=O)Cn1nnc(C(=O)NCc2cccs2)c1N | -2.8 | 8.2%&9.5% | 7 | 1 | -1 | 0.4&-0.7
O=C(Nc1c(C(=O)O)[nH]c2ccccc12)c1cccc(C(F)(F)F)c1 | -2.7 | 0.4% | 3 | 0 | -10 | -0.2

Following part
SMILES	D2 agonist	PINK1 modulator	Six1-Eya2 inh	CtBP-E1A inh	D2 potentiator	TRPML1 ag
CS(=O)(=O)Nc1ccc(C(=O)N2CC(=O)Nc3ccccc32)cc1	1.6	-0.6%	0	5	9	-1.1
Cn1sc2ccccc2c1=O	-16	3.2%	1	4	-6	0.2
COCCn1c(SCC(=O)NC(=O)NCc2ccccc2)nc2ccccc2c1=O	-0.7	4.5%	2	-18	-1	1.4
CCOc1ccc(C(=O)NCC2CCN(CC3CCCCC3)CC2)cc1	1.3	0.1%	6	-4	-9	0.3
COc1ccc(-c2cc(C(=O)OC3CCOC3=O)c3ccccc3n2)cc1 (stereo not given)	-0.5	2.1%	17	0	-12	0.8
COc1ccc(NS(=O)(=O)c2ccc(O)c(C(=O)OCC(=O)N3CC(C)OC(C)C3)c2)cc1 (stereo not given)	-3.0	1.2%	10	12	-6	-1.0
Cc1ccc(CS(=O)(=O)Cc2ccc(C(=O)NCCc3ccccc3)o2)cc1	1.1	-0.4%	3	-1	-22	0.2
COc1ccc2c(c1)C(=O)CC(c1ccccc1F)O2 (stereo not given)	-0.2	2.5%	22	-1	-22	1.7
OCC[C@@H]1C[C@@H](O)[C@H](O)[C@]2(CCCc3ccccc3O2)O1	-2.0	-0.7%	12	0	-8	-0.4
CC1CN=C(NC(=O)c2cccc([N+](=O)[O-])c2)S1 (stereo not given)	-0.5	1.1%	9	/	-1	-0.1

Part of the list above with just D2 agonist, TRPML1 ag and PINK1 modulator.
| smiles | D2 agonist | TRPML1 ag | PINK1 modulator |
| --- | --- | --- | --- |
| COc1ccc(NS(=O)(=O)c2ccc(O)c(C(=O)OCC(=O)N3CC(C)OC(C)C3)c2)cc1 (stereo not given) | -3.0 | -1.0 | 1.2% |
| Cc1ccc(CS(=O)(=O)Cc2ccc(C(=O)NCCc3ccccc3)o2)cc1 | 1.1 | 0.2 | -0.4% |
| COc1ccc2c(c1)C(=O)CC(c1ccccc1F)O2 (stereo not given) | -0.2 | 1.7 | 2.5% |
| OCC[C@@H]1C[C@@H](O)[C@H](O)[C@]2(CCCc3ccccc3O2)O1 | -2.0 | -0.4 | -0.7% |
| CC1CN=C(NC(=O)c2cccc([N+](=O)[O-])c2)S1 (stereo not given) | -0.5 | -0.1 | 1.1% |

Other entries follow:
SMILES	D2 agonist	PINK1 modulator	Six1-Eya2 inh	CtBP-E1A inh	D2 potentiator	TRPML1 ag
Cc1cc(OCc2cc(C(=O)N(C)Cc3ccccn3)no2)cc(C)c1Cl	-1.9	3.7%	-3	6	8	1.4
COc1cc2c(=O)n(CCCN3CCOCC3)c(=S)[nH]c2c(OC)c1OC	-1.4	-0.3%	-1	-1	-28	-0.6
CCOc1ccc(S(=O)(=O)N(CC(=O)O)c2ccccc2)cc1	1.1	11%[38.3 µM]	5	13	-2	-0.6
O=C1C(=O)N(CCO)C(c2ccccc2)/C1=C(\O)c1ccccc1 (stereo not given)	0.4	2.7%	0	6	-9	1.0
CC(C)CCNC(=O)c1cnn2c(C(F)(F)F)cc(-c3ccco3)nc12	-4.9	0.8%[38.3 µM]	5	30	-3	0.9
CCCNC(=O)c1ccc2c(c1)nc(C)n2-c1cccc(C)c1	0.1	0.9%&-1.6%	-2	7	-1	0.6&-0.3
Cc1ccccc1[C@@]1(C)ON(c2ccccc2C(F)(F)F)C1=O	2.1	-0.9%	25	-15	-8	2.8
Cn1c(=O)c2c(ncn2CC(=O)N2CCCCCC2)n(C)c1=O	1.0	0.2%	4	2	4	-1.0
Cc1cc(C)c(C)c(S(=O)(=O)N2CCCCC2C(=O)O)c1C (stereo not given)	-1.4	0.3%	-14	9	5	-0.2
COc1ccc(-c2c3c(nc4sc5c(=O)[nH]c(C)nc5c24)CCC3)cc1	-4.9	2.7%	?	-26	8	-0.7
CCOc1ccc(/C(O)=C2/C(=O)C(=O)N(c3ncccn3)C2c2ccc(C)cc2)cc1 (stereo not given)	-0.2	-1.2%	-5	-12	3	2.5
O=S(=O)(CCN(CCS(=O)(=O)C(F)(F)F)CC1CCCO1)C(F)(F)F (stereo not given)	-1.3	-0.3%[38.3 µM]	6	6	-5	0.9
CCOC(=O)c1ccc(N2CCCCC2)c(NS(=O)(=O)c2ccc(C)cc2)c1	2.3	1.9%	0	13	-6	0.8
CC(C)CN(C(=O)CSc1nnc(C2CC2)n1-c1ccccc1)C1CCS(=O)(=O)C1 (stereo not given)	-2.5	0.8%	5	-11	0	0.8
O=C(c1ccc2c(c1)CCN2S(=O)(=O)c1ccccc1)N1CCN(c2ccccc2)CC1	3.7	2.0%	-4	7	-4	-0.8
COC(=O)c1cc(-c2ccc(NC(C)=O)cc2)nc2ccccc12	-0.8	3.2%	9	0	-3	-0.3
CC(Sc1nnnn1C1CCCCC1)C(=O)O (stereo not given)	-1.1	1.3%	9	5	-7	-0.2
CC(=O)Oc1ccc(C(=O)Cc2ccccn2)c(O)c1	-2.8	-0.5%	0	-6	-5	-0.9
COC(=O)c1cc(S(=O)(=O)Nc2ccc(C)c(F)c2)c[nH]1	-7.9	3.0%	-8	1	-9	-1.2
Cn1cc(C(=O)Nc2ccc3c(c2)CCC3)cn1	-2.1	-0.3%	-9	-5	-25	0.1
O=c1[nH]c(=O)n([C@H]2C[C@H](O)[C@@H](CO)O2)cc1I	-1.3	2.2%	0	6	8	-0.1
N#CC1=C(N)N(c2ccccc2)C2=C(C(=O)CCC2)C1c1ccccc1 (stereo not given)	1.0	1.6%	-3	3	0	1.0
Cc1cc(C)cc(C(O)c2ncc(-c3ccc(Cl)cc3)[nH]2)c1 (stereo not given)	-2.2	?	-17	-13	-15	-0.6
COc1cc(C(=O)NCCC(=O)N2CCC3(CC2)NCCc2[nH]cnc23)cc(OC)c1OC	0.1	1.3%	-13	/	-6	4.3
Cc1cc(C)n(CC2CC(=O)N(c3ccc(C)c(Cl)c3)C2=O)n1 (stereo not given)	-1.5	4.7%	3	9	-7	0.9
Cc1cccc(N2CCN(C(=O)C3CCN(S(=O)(=O)c4c(C)noc4C)CC3)CC2)c1C	6.2	-1.2%&1.1%	-1	2	-8	-1.9&-0.3
Fc1ccccc1NC(=S)N1CCCCC1	-1.0	-0.1%	1	-16	-1	-0.6
O=C(c1ccc(C(=O)N2CCCCCC2)cc1)N1CCCCCC1	-4.3	-1.5%	2	7	1	0.3
CC(OC(=O)c1ccccc1Nc1ccc(SC(F)F)cc1)C(N)=O (stereo not given)	0.0	-0.4%	-4	0	3	-0.3
O=C(CN1C(=O)S/C(=C\C=C\c2ccccc2)C1=O)Nc1ccc(C(=O)O)cc1	-2.9	1.6%	-7	-14	-5	0.5
COc1ccc(-c2csc(Nc3ccc(C)cn3)n2)cc1OC	-3.1	2.6%	-4	-3	-5	/
CCOc1ccccc1NC(=O)N1CCc2ccccc2C1	-3.3	0.3%	1	10	0	-0.9
S=c1[nH]nc(Cc2sc(-c3ccccc3)nc2-c2ccccc2)o1	3.2	-2.0%	-17	-3	-5	0.4
COc1ccc(NC(=O)CN(C)C(=O)CCNS(=O)(=O)c2ccc(Br)cc2)cc1	-0.6	0.2%	-7	3	-20	0.4
Cc1onc(-c2ccccc2)c1C(=O)N/N=C/c1ccc([N+](=O)[O-])c(O)c1	-2.7	0.0%	-1	-4	-5	0.7
O=C(NCCc1ccccc1)C1Cc2c(-c3ccccc3Oc3ccccc3)ccnc2O1 (stereo not given)	-4.0	21%	-9	-8	-11	0.1

Screens: PubChem BioAssay, National Center for Advancing Translational Sciences (NCATS)
